Compound activity from PubChem BioAssay.
E coli growth: blocks Escherichia coli growth. OD600, 23 h; stronger effect = lower value. OD600 absorbance (no concentration beside the values). actives 0.21% (n = 330,000);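 active means OD600 absorbance below the run mean of sample wells minus 3.6 SD, in any replicate, cut at about 0.56 in these data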;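 further: stock transfer was 300 nL into about 60 µL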
Vif TR-FRET: HIV-1 Vif–A3G interaction blockers – biochemical, TR-FRET, GST-Vif 1-94, biotin-A3G peptide, dose response retest, primary screen (AID 1117319); TR-FRET GST-Vif / biotin-A3G peptide binding; higher % means a stronger effect; test concentration not given here; strong numbers were not always called active; actives 0.57% (n = 260,000); inhibition, %, or IC50 in µM where a hit was titrated;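 active means above the screen mean plus three standard deviations and confirmed in dose response; inconclusive means results disagree or hit not tested in dose response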;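 further: Vif residues 1-94 fused to GST binding biotinylated APOBEC3G peptide 110-148; 0% = full assay without inhibitor and 100% = GST in place of GST-Vif; retest series ran down from 100 µM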
HNF4A DNA FP: change in binding of human HNF4 alpha to DNA; HNF4a-FITC DNA binding, fluorescence polarization, 1 h; AID 1224865; P41235; activity change, % at 10 µM; actives 0.3% (n = 360,000); in the data active means activity change above about 30%, passing the limit was not always enough;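 further: controls were the assay level and a saturating level of protein; the project sought stronger binding though the title names inhibitors; some compounds called inactive have numbers as strong as hits; positive values seem to mean higher polarization but the record does not say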
Target sequence (P41235 whole entry, looked up): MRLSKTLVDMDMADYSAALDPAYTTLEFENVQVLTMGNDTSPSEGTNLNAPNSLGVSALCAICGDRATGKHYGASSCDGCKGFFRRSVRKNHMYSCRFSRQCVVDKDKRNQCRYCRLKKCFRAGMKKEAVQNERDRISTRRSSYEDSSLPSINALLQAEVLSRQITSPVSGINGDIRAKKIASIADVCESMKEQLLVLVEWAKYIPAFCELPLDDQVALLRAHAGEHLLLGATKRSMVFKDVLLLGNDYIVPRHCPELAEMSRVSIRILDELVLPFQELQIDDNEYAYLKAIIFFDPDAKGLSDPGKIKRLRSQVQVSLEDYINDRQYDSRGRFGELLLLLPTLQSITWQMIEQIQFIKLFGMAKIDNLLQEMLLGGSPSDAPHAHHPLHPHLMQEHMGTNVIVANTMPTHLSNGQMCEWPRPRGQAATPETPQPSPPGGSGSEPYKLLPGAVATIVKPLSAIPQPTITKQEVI
Beta2AR agonist: activates human beta-2 adrenergic receptor causing internalization; P07550; Am2.2-beta2AR cells, FAP receptor internalization, flow cytometry; reference of the scale not given here; response, % (no concentration beside the values); actives 0.43% (n = 340,000); AID 504454;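 active means response above a set limit, near 3 SD of response in nonfluorescent compounds, cut at about 42% in these data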;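 further: stock transfer was 100 nL into about 11 µL; a reference agonist was the positive control; negative values mostly stem from fluorescent compounds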
LANA-H2B inh: blocks KSHV LANA binding to histone H2A/H2B; actives 0.6% (n = 320,000); Q9QR71; cell-free LANA-H2A/H2B peptide, fluorescence polarization; inhibition, % (no concentration beside the values); in the data active means inhibition mostly above about 10%, no sharp cut-off; inactive means mostly below about 6.7%;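 further: stock transfer was 7.5 nL into about 10 µL; 0% = median of vehicle wells and 100% = median of positive control wells; one replicate is shown; the record names a cut of 25% in any replicate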
Bfl-1 A1 inh: inhibitors of the anti-apoptotic protein A1, read as caspase activation; MEF A1-2A-BIM cells, Caspase-Glo 3/7 luminescence, 3 h; percent of clofoctol response, vehicle zero; caspase activation, % (no concentration beside the values); actives 0.066% (n = 330,000);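 active means over half of replicate activation scores above 10%, or exactly half above 10 with the replicate mean above 10; inconclusive means replicate mean below 10 yet half the replicates above 10; inactive means over half of replicates below 10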;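 further: wells of about 30 µL received 50 nL stock; many hits fall short of the cut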
UCH37 DUB inh: blocks the human deubiquitinase UCH37 | inhibition, % (concentration not given with the values) | purified proteasome/UCH37, Ub-AMC cleavage fluorescence | Q9Y5K5 | actives 0.33% (n = 330,000);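 active means mean of two replicates above 20%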;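 further: 0% = compound-free wells with enzyme and 100% = wells lacking proteasome; stock transfer was 100 nL into about 20 µL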
Target sequence (Q9Y5K5 whole entry, looked up): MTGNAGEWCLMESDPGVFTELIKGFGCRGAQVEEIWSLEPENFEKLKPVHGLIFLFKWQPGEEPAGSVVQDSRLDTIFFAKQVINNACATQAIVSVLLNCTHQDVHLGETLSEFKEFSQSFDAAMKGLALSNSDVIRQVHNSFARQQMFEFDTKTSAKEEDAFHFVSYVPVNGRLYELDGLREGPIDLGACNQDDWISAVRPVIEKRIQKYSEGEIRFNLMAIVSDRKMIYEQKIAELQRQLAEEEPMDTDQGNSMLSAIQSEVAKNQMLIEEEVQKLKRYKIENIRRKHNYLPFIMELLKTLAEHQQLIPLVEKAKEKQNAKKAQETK
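Material: Human UCH37 enzyme supplied as purified proteasome complex | Schedule: 30 min preincubation with enzyme, 25 min cleavage at room temperature | Detection: AMC fluorescence 355/460 nm | Measure: % inhibition of Ub-AMC cleavage fluorescence | Controls: Wells without proteasome as full block, compound-free enzyme plus substrate as uninhibited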
The depositor's hits bear a star; u = inconclusive; x = no result given; & = joins results of further samples.

SMILES	E coli growth	Vif TR-FRET	HNF4A DNA FP	Beta2AR agonist	LANA-H2B inh	Bfl-1 A1 inh	UCH37 DUB inh
COC(=O)/C=C/C(=O)Nc1cccc(C(F)(F)F)c1	0.658	-1.4%	0.3	-3.6	0.1	-0.5	-0.8
CCOC(=O)C1CCN(C(c2cc3ccc(C)c(C)c3[nH]c2=O)c2nnnn2C2CCCCC2)CC1 (stereo unspecified)	0.741	0.8%	16.5	7.8	-2.3	0.6	1.8
Cc1[nH]n(-c2ccccc2)c(=O)c1N=Nc1ccc2c(c1)OCO2	0.703	-0.2%	2.0	3.6	1.7	0.2	7.7
O=C(COc1cccc2ccccc12)NNC(=O)C1CCCO1 (stereo unspecified)	0.757	u	0.6	-5.4	1.3	u	3.9
CC(C)NC(=O)CCn1c(=S)oc2ccccc21	0.698	x	-2.9	13.7	6.7	1.1	4.0
CC(C)OCCCNC(=O)c1cn(C)c2ccc(S(=O)(=O)N(C)C3CCCCC3)cc2c1=O	0.693	-0.8%	5.0	4.3	4.4	0.6	5.1
CC(C)C(=O)N1C2CCC1CC(O)(c1ccc(F)cc1)C2 (stereo unspecified)	0.698	-4.0%	-3.2	-4.8	7.4	0.3	3.1
COc1ccc(NC(=O)C(NC(=O)c2ccc(C)cc2)c2ccccc2)cc1 (stereo unspecified)	0.65	x	-0.2	4.1	-2.5	-1.5	0.0
Cc1ccc(/C=N/N2C(=S)SC(C)(C)C2N(O)C(=O)Nc2ccc([N+](=O)[O-])cc2)cc1 (stereo unspecified)	x	1.6%	-1.8	35.0	-4.1	0.6	x
COc1cccc(-n2c(SCC(=O)NCc3cccs3)nc3ccccc3c2=O)c1	0.689	3.8%	4.4	-4.8	0.1	0.2	2.0
Cc1csc(NC(=O)CSc2nnc(CCNC(=O)c3cccs3)n2C)n1	0.688	9.3%	-0.1	-17.7	0.5	1.6	2.5
O=C(O)CCS(=O)(=O)c1ccc(-c2ccccc2)cc1	0.742	x	-3.0	-4.4	1.4	1.1	6.4

Overlap with the part before: 2 entries, followed by the next part.
SMILES	E coli growth	Vif TR-FRET	HNF4A DNA FP	Beta2AR agonist	LANA-H2B inh	Bfl-1 A1 inh	UCH37 DUB inh
Cc1csc(NC(=O)CSc2nnc(CCNC(=O)c3cccs3)n2C)n1	0.688	9.3%	-0.1	-17.7	0.5	1.6	2.5
O=C(O)CCS(=O)(=O)c1ccc(-c2ccccc2)cc1	0.742	x	-3.0	-4.4	1.4	1.1	6.4
Cc1ccc(S(=O)(=O)N(C)Cc2nc(-c3ccncc3)no2)cc1	0.741	-0.8%	3.7	2.9	0.7	-0.6	1.9
CCOc1ccc(CC(=N)C2=C(O)CC(C)(C)CC2=O)cc1OCC	0.704	x	1.1	-7.3	x	0.3	4.8
Cc1n[nH]c(C)c1CCCCOc1ccc([N+](=O)[O-])cc1	0.67	-1.9%	0.0	7.8	-1.9	0.2	4.0
CN1C(=O)[C@H]2[C@@H](/C=C/c3ccccc3)N3C(=O)CN(Cc4ccc(-c5ccccc5)cc4)C(=O)[C@@]3(C)[C@H]2C1=O	x	x	0.5	5.5	3.2	0.3	0.2
CN(CC(=O)Nc1ccccc1Cl)C(=O)COC(=O)CNC(=O)c1ccc(Br)o1	0.643	9.0%	-0.3	-16.3	3.4	x	3.1
CC(=O)c1ccccc1OC(=O)CCN1C(=O)c2ccccc2C1=O	0.69	-9.8%	-1.7	16.4	-6.3	0.7	8.1
CCC(CO)Oc1cc(NC(=O)c2ccc(N)cc2)c2ncn(C(C)C)c2c1 (stereo unspecified)	0.704	x	2.3	19.9	6.1	-1.4	3.6
CCC(C)NCCOCCOc1ccccc1-c1ccccc1 (stereo unspecified)	0.649	20.8%	1.6	5.5	0.9	-0.4	3.8
O=C(Nc1cccc(O)c1)C1CC(c2c(F)cccc2Cl)=NO1 (stereo unspecified)	0.669	x	-0.6	4.1	1.3	0.1	-1.9
Cc1ccc2c(c1)N(C(=O)CCC(=O)N1CCOCC1)CC(C)O2 (stereo unspecified)	0.761	x	-0.2	-0.8	-1.4	0.6	4.3
Cc1ccc(S(=O)(=O)NCCc2ccncc2)cc1[N+](=O)[O-]	0.606	-4.3%	1.4	6.0	-4.2	-0.9	4.6
CCCNC(=O)C(Cc1ccccc1)NS(=O)(=O)c1cccc2nsnc12 (stereo unspecified)	0.668	25.1%	0.6	-4.0	2.0	0.1	2.5
Cc1ccccc1-c1nc(CS(=O)(=O)CC(=O)NC(C)c2ccccc2)c(C)o1 (stereo unspecified)	0.645	x	0.2	4.3	-0.7	0.3	-0.7
CCN(CC(=O)Nc1ccc(NC(C)=O)cc1)C(=O)/C=C/c1ccco1	0.718	6.7%	0.9	-3.2	3.4	0.4	2.2
CCOC(=O)c1ccc(NC(=O)CSc2nc(N)c(NC(=O)c3ccc(Br)o3)c(=O)[nH]2)cc1	0.75	30.2%	0.4	-7.3	1.6	0.9	0.6
CCN(C(=O)/C=C/c1ccc(OC)cc1)C1CCCCC1	0.633	x	-3.2	19.7	-6.4	0.0	1.3
CC(=O)Nc1cccc(NC(=O)CS(=O)(=O)c2cn(CC(=O)N(C(C)C)C(C)C)c3ccccc23)c1	0.695	x	2.0	2.7	-3.3	-0.7	1.4
CCOC(=O)c1c(-c2ccc(C)cc2)csc1NC(=O)CCSc1nnc2ccccn12	0.708	-25.0%	-1.5	-2.9	0.0	-0.7	-10.7
CC(C)(CO)NCc1ccccc1OCC(=O)Nc1ccccc1	0.705	-1.5%	-2.2	5.7	1.3	0.0	0.0
CCCC(=O)Nc1ccc(C(=O)NNC(=S)NC(=O)c2ccc(Br)o2)cc1	0.559	30.3%	-2.1	-11.5	0.8	0.5	6.0
Nc1nc(C23CC4CC(CC(C4)C2)C3)cs1	0.682	-0.5%	-2.2	-9.4	3.8	-0.6	-0.9
CC(C)CCNc1nc(N)c([N+](=O)[O-])c(N2CCCCCC2)n1	0.686	-1.7%	2.1	0.7	0.3	0.7	6.7
CCN(CC(=O)Nc1ccccc1OC)C(=O)CC1CC2CCC1C2 (stereo unspecified)	0.653	-10.7%	1.4	1.4	-8.0	0.1	-0.6
Cn1ncc(C#N)c1/N=C/N1CCCC1	x	u	-3.3	12.0	1.9	-0.1	x
O=C(c1ccco1)N1CCCC(c2nc3c(nnn3Cc3c(Cl)cccc3Cl)c(=O)[nH]2)C1 (stereo unspecified)	0.715	x	-0.8	50.5*	0.8	0.0	3.8
COc1ccc(-c2c(NC(=O)c3ccco3)n(-c3ccc(C)cc3)nc(C)c2=O)cc1	0.638	-3.4%	-2.4	0.1	-1.4	0.4	1.6
Nc1nc(CN2CCN(c3ccccc3)CC2)nc(Nc2ccc(Cl)cc2)n1	0.67	-8.5%	-0.2	-2.0	0.6	u	3.0
CCN(CC)C(=O)CSc1nc2ccccc2c(=O)n1OC	0.743	4.8%	1.6	-3.4	-11.2	-0.6	1.4
CC1(C)CC(=O)N(c2cc(Cl)ccc2Cl)C(=O)C1	0.684	0.9%	1.3	1.1	-5.0	0.1	2.1
O=C(CSc1nnc(Nc2ccccc2)s1)NN1C(=O)NC2(CCCCC2)C1=O	0.666	26.6%	1.5	-10.6	-7.6	-0.6	6.5
COc1ccc(F)cc1S(=O)(=O)N1CCC2(CC1)OCCN2S(=O)(=O)c1ccccc1	0.699	-2.2%	0.0	0.3	x	x	4.1
CSc1ccccc1NC(=O)CSCc1nc2sc(C)c(C)c2c(=O)[nH]1	0.678	x	4.8	11.3	3.5	0.3	3.7
CCc1c(O)nc(SCC(=O)Nc2nc3ccccc3s2)n(-c2ccc(C)cc2)c1=O	0.628	-9.7%	2.6	1.2	-0.7	-0.1	2.7
COc1ccc(NC(=O)CSc2ccc(-c3cccs3)nn2)c(OC)c1	0.679	20.0%	1.1	5.4	2.0	0.6	5.9
COc1cccc(OC)c1C(=O)NC(=S)Nc1ccc2c(c1)Cc1ccccc1-2	0.731	-1.6%	-1.7	3.6	2.8	-0.3	2.2
CCCCOc1ccc(/C=N/NC(=S)Nc2cc(C)ccc2C)cc1	x	3.2%	1.9	3.0	0.0	0.9	x
O=S(=O)(c1ccc2c(c1)OCCO2)N1CCN(c2nc(-c3cccnc3)nc3ccccc23)CC1	x	-6.1%	x	x	-2.6	u	x
O=C(CCCN1C(=O)/C(=C/c2cccs2)SC1=S)Nc1ccccc1O	0.665	x	3.9	4.7	2.2	0.6	3.7
CC(=O)c1cccc(NC(=O)C(C)OC(=O)Cc2n[nH]c(=O)c3ccccc23)c1 (stereo unspecified)	0.702	x	1.7	-2.7	5.3	0.0	1.6
C[C@@H]1CN([C@H](C)CO)C(=O)c2cccc(NS(=O)(=O)c3ccccc3)c2O[C@H]1CN(C)C	0.723	-2.9%	0.1	-2.9	9.5	0.5	0.3
Nc1ccc(/C=C/C(=O)c2ccco2)cc1	0.673	31.0%	13.3	-1.6	-7.4	0.0	6.1
COc1cc2nc(CN(C)Cc3nc4ccccc4c(=O)[nH]3)[nH]c(=O)c2cc1OC	0.625	17.4%	6.0	-5.5	-1.9	-0.8	-2.5
COc1ccc(CC2(CO)CCN(Cc3cnn(-c4ccccc4OC)c3)CC2)cc1	0.679	-9.3%	0.6	-8.0	2.4	0.0	5.9
Cc1cc(C)c(C)c(S(=O)(=O)N2CCC(C(=O)Nc3ccc(S(=O)(=O)N4CCOCC4)cc3)CC2)c1C	0.698	x	0.3	2.1	-2.2	0.1	0.0
COC(=O)c1cc(NC(=O)CN(c2ccc(OC)cc2)S(=O)(=O)c2ccc(F)cc2)ccc1Cl	0.726	4.0%&10.8%	-5.4	-2.9	x	x	-2.1
CC1Cc2ccccc2N1C(=O)c1cnc2sccn2c1=O (stereo unspecified)	0.683	5.8%	6.0	0.9	10.0	-0.2	7.0
CN(C[C@H](Cc1ccccc1)N(C[C@H](Cc1ccccc1)N(CC1(c2ccccc2)CC1)N=O)N=O)N=O	x	11.0%	-5.2	-3.1	0.7	0.5	0.3
Cc1ccc(S(=O)(=O)N(C)C)cc1NC(=O)COC(=O)CCC1CCCC1	0.666	3.2%	1.3	-4.0	3.1	0.0	1.1
Fc1ccccc1-c1nnc2c3ccccc3nc(N3CCOCC3)n12	0.738	-4.7%	-3.4	-1.0	-2.5	0.6	0.2
COc1ccc(Br)cc1/C=N/NC(=O)c1ccc(OC)c(OC)c1	x	-7.6%	-2.0	0.5	1.6	1.0	x
CCCC(=O)NC(NC(=S)Nc1c(C)n(C)n(-c2ccccc2)c1=O)C(Cl)(Cl)Cl (stereo unspecified)	0.715	5.3%	-8.0	-0.4	8.0	0.2	2.2
Cc1ccc(C)c(S(=O)(=O)Nc2ccc(O)c3ccccc23)c1	0.681	x	4.0	1.4	-0.9	0.5	3.2
O=c1oc2ccccc2c(N2CCC(c3ccccc3)CC2)c1[N+](=O)[O-]	0.675	0.0%	-2.3	-3.6	2.6	-1.9	5.8
O=C(Nc1cccc(-n2cnnn2)c1)c1ccc(C(F)(F)F)cc1	0.689	x	-6.2	2.8	-1.8	-0.2	-1.0
O=C(CSCc1ccc(Br)cc1)NCc1ccccn1	0.665	-4.9%	1.4	-7.1	2.2	0.1	2.1
COc1ccc(OCc2cccc(C(=O)O)c2)cc1	0.735	-1.4%	2.2	0.1	-6.4	-10.2	3.0
C[C@H](NC(=O)c1ccccc1)C(=O)Nc1nc(-c2ccccn2)cs1	0.715	11.8%	-1.2	-0.9	-1.3	0.6	-0.3
CC(C(=O)NCc1ccc(F)cc1)c1ccc([N+](=O)[O-])cc1 (stereo unspecified)	0.668	-4.8%	-3.1	-4.1	-10.4	0.0	3.6
CCSc1nnc(NC(=O)CSc2ncccn2)s1	0.652	2.0%	-2.4	3.1	-0.8	1.9	-0.5
